Screening results from PubChem BioAssay.
NPYLR7 ag – activates Aedes aegypti NPYLR7 receptor. activation, % at 10 µM. 270,000 tested, 0.15% active. AID 1259423. HEK293T NPYLR7/Galpha15, GCaMP6s calcium fluorescence; in the data active = activation above about 40%;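 note: 0% = vehicle and 100% = reference agonist at the receptor; some compounds past the cut are filed as inactive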
NPYLR7 ag max-min – recorded beside NPYLR7 ag, whose call it bears; activation, %; measured here: Max-Min RFU normalised activation; some inactives read as strong as hits;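 span of the calcium signal over five minutes; 0% = vehicle and 100% = native peptide agonist; compound fluorescence can raise it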
An asterisk follows results filed as active; & = joins results of further samples. An excerpt. The share of hits here may be higher or lower than overall.

Results follow in this order: NPYLR7 ag | NPYLR7 ag max-min
CNc1ccc(Br)c(C)c1
 : 13 | 12
CCC1=NOC(CNCc2cnc(-c3ccccc3C)s2)C1 (stereo not drawn)
 : -6 | -9
O=C1c2ccc(Br)cc2C(=O)N1CNc1ccc(Oc2ccc(Cl)cc2)cc1
 : -2 | 0
O=C(NC(c1ccccc1)c1ccc2ccccc2n1)C1CCN(CCc2ccc(F)cc2)CC1 (stereo not drawn)
 : 5 | -6
Cc1ccc2nc(CN3CCCC4(C3)C(=O)N(C)c3ccccc34)cn2c1 (stereo not drawn)
 : -3 | -4
O=C(Nc1cccc2cccnc12)c1ccc([N+](=O)[O-])o1
 : -16 | -16
COc1ccc2c(=O)c3c(=O)n(-c4ccc(C)cc4)c(C)nc3oc2c1
 : -4 | -4
CCOC(=O)c1cc(C2CC2)n(-c2ccc(C(=O)N3C(C)C=CC3C)cc2)n1 (stereo not drawn)
 : -3 | 3
CCN(CC)P1(=Nc2ccc(C)c(C)c2)C(=C2N(C)c3ccccc3C2(C)C)C=NN1C (stereo not drawn)
 : 8 | 15
CC(C)C(=O)Nc1cccc(-c2ccn[nH]2)c1
 : 7 | -1
OC[C@H]1O[C@@H](c2nc(-c3ccc4[nH]ccc4c3)no2)[C@H](O)[C@@H](O)[C@H]1O
 : -3 | -3
O=C(c1cnnn1-c1ccccc1)N1CCCC1c1ccccn1 (stereo not drawn)
 : -5 | -9
Cc1nc2ccc(NC(=O)Nc3ccnc4cccnc34)cc2o1
 : -16 | -21
COc1cccc(-c2nc3c(OCc4ccccc4)cccn3c2NC2CCCCC2)c1
 : 0 | 5
O=C(Cc1cc(=O)n(-c2ncc(C(F)(F)F)cc2Cl)[nH]1)Nc1ccc2c(c1)CCC2
 : 0 | 0
OC12CC3C4CC5CC3C(C1)C(C5)C4C2
 : -2 | -4
Cc1cc(CN(C)c2ccc(C(=O)N3CCC(Cn4cccn4)CC3)cn2)n[nH]1
 : 3 | 2
Cc1[nH]cnc1-c1nccn1CCCN(C)C
 : 9 | 4
Cc1ccc(CNCCN(C)C)s1
 : 1 | 6
CC(C)=NOC1(c2ccccc2)OC(=N)C(C#N)=C1C(C#N)C#N (stereo not drawn)
 : 2 | 43
CCN1CCN(C(=O)CCN(CC(C)C)c2nc(-c3ccco3)nc3ccccc23)CC1
 : 12 | 22
CCOC(=O)C1CCCN(C(=O)c2csc(COc3cccc(C(F)(F)F)c3)n2)C1 (stereo not drawn)
 : -7 | 9
C=C(C)CC1NC2CC(C)(C)C1c1c(Br)cccc12 (stereo not drawn)
 : -1 | -2
COc1ccc(S(=O)(=O)N2CCOCC2)cc1NC(=O)CCNC(=O)NC1CCCCC1
 : 8 | 6
CCCCCc1ccc(C(=O)N2CCC3(CC2)NC(=O)c2ccc(Cl)cc2N3)cc1
 : 19 | 27
O=C(C1CCCC1)N(Cc1ccccc1)CC1CC(c2ccc(Cl)o2)=NO1 (stereo not drawn)
 : -5 | 3
COc1cccc(NC(=O)N2CCSC23C(=O)N(Cc2ccccc2C)c2ccc(OC)cc23)c1 (stereo not drawn)
 : -2 | 13
COCC(O)CN(CCN1CCOCC1)Cc1cccn1Cc1ccc(C(C)(C)C)cc1 (stereo not drawn)
 : -2 | 5
O=C(c1ccc(F)cc1)N1CCCCC(S(=O)(=O)c2ccccc2)C1=O (stereo not drawn)
 : 22 | 21
CN1CCN2c3ccccc3Cc3ccccc3C2C1 (stereo not drawn)
 : -6&-4&-3&3 | -11&-6&-2&-35
CSc1ccc(NC(=O)NC(C)c2nnc(SCc3ccccc3C)n2-c2ccc(C)cc2)cc1 (stereo not drawn)
 : 14 | 18
CC1CCC(C(C)C)N(C(=O)c2ccn(C)c(=O)c2)CC1 (stereo not drawn)
 : 4 | 2
Cc1ccc(-c2nnc(SCc3nc(-c4ccccc4)no3)n2C)cc1
 : 2 | -3
O=C1C(=O)N(c2ncccn2)C(c2cccc(Cl)c2)C1=C(O)c1ccc(F)cc1 (stereo not drawn)
 : 1 | 0
Cc1nn(Cc2n[nH]c(=O)n2[C@H](C)c2ccc(F)cc2)c(C)c1C
 : 2 | 0
CCN(CC)S(=O)(=O)c1ccc(C)c(NCc2ccc(C#N)cc2)c1
 : 19 | 18
NC(=O)C(OC(=O)C1CCOCC1)c1ccc(F)cc1 (stereo not drawn)
 : 15 | 13
COc1ccccc1N1CCN(c2ccc(N)cc2C(=O)NCCCN2CCOCC2)CC1
 : 8 | 6
COc1ccc(Cl)cc1-n1nnc(S(=O)(=O)c2ccc(C)cc2)c1C
 : -8 | -14
Cc1ccccc1NC(=O)Nc1ccc(-n2nc(OCC(C)C)nc2-c2ccc3c(c2)OCO3)cc1
 : 1 | 8
COCCNC(=O)c1cn(C)nc1OC
 : 4 | 5
Cc1ccccc1C1c2ccsc2CCN1CCC(=O)N1CCN(S(=O)(=O)c2cc(Cl)ccc2Cl)C(C)C1 (stereo not drawn)
 : 12 | 2
CC(C)COCC(O)CN(Cc1ccsc1)CC1CCCO1 (stereo not drawn)
 : 21 | 16
FC(F)(F)c1cc(-c2ccccc2)nc(NC2CCCC2)n1
 : 0 | 0
CCNS(=O)(=O)c1cccc2nonc12
 : 4 | 3
O=C(CCN1CCc2c(CN3CCCC3)cccc21)Nc1c(Cl)cccc1Cl
 : 6 | 3
COc1ccc(NC(=O)c2c[nH]c3c(c(C)nn3-c3ccccc3)c2=O)cc1
 : 2 | 10
COCc1ccc(C(=O)N2CCCC(Nc3ccc(F)c(F)c3)C2)s1 (stereo not drawn)
 : 3 | 0
CC1CCN(Cc2nnnn2CC(=O)N2CCN3CCCC3C2)CC1 (stereo not drawn)
 : 3 | 3
COc1ccc(C=NNC(=O)c2cc(-c3ccc(F)cc3)n[nH]2)cc1OC
 : 2 | 2

Following part:
Results follow in this order: NPYLR7 ag | NPYLR7 ag max-min
CCOC(=O)c1ccccc1NC(=O)COc1cc(C)nc(N2CCC(C)CC2)n1
 : -3 | -4
COCCNc1ccc2ncc(-c3cccc(N(C)C)c3)n2n1
 : -5 | -6
COCCSc1nc2c(c(=O)[nH]c(=O)n2C)n1Cc1ccccc1Cl
 : 2 | 1
O=C(Cn1ccn2nc(-c3ccc(Cl)cc3)cc2c1=O)NCCc1ccccc1
 : 6 | 5
O=C1N=c2ccccc2=C1c1sc(=S)n(Cc2ccco2)c1O
 : 16&-7 | 15&-14
CC(C)(C)NCC(=O)Nc1cc(F)cc(F)c1
 : -9 | -10
CN(CCOc1ccccc1)Cc1nc(N)nc(N)n1
 : 9 | 1
COC(=O)c1ccc(CN2CCN(c3ccc4c(c3)OCO4)C(=O)C2C)cc1 (stereo not drawn)
 : 2 | 8
Cc1nc(-n2nc(-c3ccco3)cc2NC(=O)COc2ccc(F)cc2)[nH]c(=O)c1C
 : 0 | -3
Cc1cccc(-c2ccc(NC(=O)C3CCN(C(=O)[C@@H]4C[C@H]4c4ccccc4)CC3)cc2)c1
 : 13 | 6

In another format: 3 of the compounds above
SMILES: CC(C)(C)NCC(=O)Nc1cc(F)cc(F)c1
- NPYLR7 ag: -9
- NPYLR7 ag max-min: -10

SMILES: CCOC(=O)c1ccccc1NC(=O)COc1cc(C)nc(N2CCC(C)CC2)n1
- NPYLR7 ag: -3
- NPYLR7 ag max-min: -4

SMILES: O=C1N=c2ccccc2=C1c1sc(=S)n(Cc2ccco2)c1O
- NPYLR7 ag: 16&-7
- NPYLR7 ag max-min: 15&-14

Going on with the list:
Results follow in this order: NPYLR7 ag | NPYLR7 ag max-min
Cc1cc2c(cc1O)NC(=O)CC2c1nccs1 (stereo not drawn)
 : 13 | 4
C#CCn1cnc2c(nnn2-c2ccc(C)c(Cl)c2)c1=O
 : -2 | -8
CC1(C(=O)Nc2ccc(Cl)c(Cl)c2)CCN1C(=O)CCc1ccc(Cl)cc1Cl (stereo not drawn)
 : 1 | 0
CCOC(=O)Cn1c(=NC(=O)c2ccco2)sc2cccc(F)c21
 : 4 | 3
COc1ccccc1-c1nc2ccc(Br)cn2c1NC(C)(C)CC(C)(C)C
 : 14 | 16
COc1cc(OC)cc(-c2nc(CC(=O)NC3CCCCC3)no2)c1
 : 3 | 2
O[C@@H]1C[C@H]2CN(c3ncccc3C(F)(F)F)C[C@H]2C[C@@H]1O
 : 3 | 0
CCC(C)N(Cc1ccc(OS(C)(=O)=O)cc1)C(=O)c1cccs1 (stereo not drawn)
 : -5 | -4
CS(=O)(=O)Nc1ccc2nc(-c3cccc(C(F)(F)F)c3)nn2c1
 : -12 | -12
CNC(=O)c1cc2c(=O)n3cccc(C)c3nc2n(CCCn2ccnc2)c1=N
 : 0 | -1
CC(C)(C)NC(=O)NC(=O)CNc1ccc(C(F)(F)F)cc1
 : 6 | 0
CC(=O)N(c1cccc(C(F)(F)F)c1)c1nc(C=O)c(Br)s1
 : 5 | 1
COc1ncccc1-c1ccc(C(=O)Nc2cccnc2)o1
 : 4 | 8
Cn1c(C(C#N)=Cc2ccc([N+](=O)[O-])s2)nc2ccccc21
 : 10 | 11
CCN(CC)c1ccc2cc(C(=O)Nc3ccc(OC)c(OC)c3)c(=O)oc2c1
 : 16 | 18
CCN(CC)CCCn1c2c(c(SCC(=O)Nc3ccccc3C(F)(F)F)nc1=O)CCC2
 : 10 | 20
COc1ccnc(N2CCN(c3nnc(C)c(C)c3C(N)=O)CC2)n1
 : -3 | -2
CCC(C(=O)Nc1c2c(nn1CC(=O)NCc1ccco1)CSC2)c1ccccc1 (stereo not drawn)
 : -4 | 4
O=C1CC2(CCCC2)C(=O)N1CN1CCN(S(=O)(=O)c2cccc(Cl)c2)CC1
 : 1 | 8
COCCNC(=O)C(NC(=O)c1cccc(OC)c1)C1CCN(C(=O)c2ccccc2OC)CC1 (stereo not drawn)
 : 9 | 8

Other records follow.
mol,NPYLR7 ag,NPYLR7 ag max-min
COc1ccccc1NC(=O)NC(Cc1ccccc1)C(=O)Nc1nnc(-c2ccc(F)cc2)s1 (stereo not drawn),1,17
CCc1cccc2c(C(CC(=O)NC(C)CCc3ccccc3)c3ccc(OC)c(OC)c3)c[nH]c12 (stereo not drawn),-2,-1
CCc1cccc(C)c1NC(=O)c1ccc(CN2C(=O)CCC2=O)cc1,-1,0
CN(CC(=O)Nc1ccnn1C1CCCC1)c1c(F)cccc1F,-1,0
OC(CC1CCCN1)c1ccco1 (stereo not drawn),15,10
NC1=NC(c2ccc(O)c(O)c2)n2c(nc3ccccc32)N1 (stereo not drawn),12,4
COc1ccc(S(=O)(=O)NCCc2ccc(F)cc2)cc1N1CCN(C(=O)C(Cl)(Cl)Cl)CC1,14,11
O=C(NC1CCc2ccccc21)c1ccc(-c2ccc3c(c2)OCCO3)s1 (stereo not drawn),-2,11
COc1nn2ccsc2c1C(=O)N1CCN(C)CC1,26,18
CCn1c(SCC(=O)Nc2ccccc2)nc2ncccc2c1=O,6,6
O=C(CCn1ccc2ccccc21)N1CCN(S(=O)(=O)c2ccc(F)cc2)CC1,-1,-2
Cc1cc2c(N=NC(=O)c3ccccc3)c(O)[nH]c2cc1Br,-2,-10
Cc1cc(C)c(S(=O)(=O)NC(Cc2ccccc2)c2nnc(SCc3ccccc3)n2-c2ccc([N+](=O)[O-])cc2)c(C)c1 (stereo not drawn),26,32
CCCCCn1c(CN2CCN(c3ccc(F)cc3)CC2)nc2c1c(=O)n(C)c(=O)n2C,4,2
COCCn1c(C)cc(O)c(C(c2ccc(OC)c(OC)c2)N2CCN(CCO)CC2)c1=O (stereo not drawn),6,0
Cn1c(=NN=CC(Cl)=Cc2ccccc2)sc2ccccc21,0,0
COC(=O)c1oc2c(c1C)C(=O)CC(c1ccc(OC)c(OC)c1)C2 (stereo not drawn),11,5
Cc1ccsc1C1NC(=O)c2c(sc3c2CCCC3)N1 (stereo not drawn),-3,-4
CCCOc1nc2ccccc2nc1N1CCC(C(N)=O)CC1,4,1
COc1ccc(-c2ccn[nH]2)cc1C(F)(F)F,21,8
Cc1ccc(-c2nn(Cc3ccccc3F)c(=O)c3nc(C)sc23)cc1,4,1
Cc1cccc(C)c1NC(=O)CN(C)c1cnn(Cc2ccccc2)c(=O)c1Cl,-5,-6
N#Cc1ccc(C(=O)N2CCC(c3cn(Cc4ccc(C(F)(F)F)cc4)c4ccccc34)CC2)cc1,2,9
N#CCc1nc(N)nc(Nc2ccc(Cl)cc2)n1,1,8
Cc1ccc(Oc2cnn(C)c(=O)c2Nc2ccc(C(=O)O)cc2)c(C)c1,10,6

Grouped by structure: those above with an aryl thioether with sulfur outside any ring (6)
mol,NPYLR7 ag,NPYLR7 ag max-min
CSc1ccc(NC(=O)NC(C)c2nnc(SCc3ccccc3C)n2-c2ccc(C)cc2)cc1 (stereo not drawn),14,18
Cc1ccc(-c2nnc(SCc3nc(-c4ccccc4)no3)n2C)cc1,2,-3
COCCSc1nc2c(c(=O)[nH]c(=O)n2C)n1Cc1ccccc1Cl,2,1
CCN(CC)CCCn1c2c(c(SCC(=O)Nc3ccccc3C(F)(F)F)nc1=O)CCC2,10,20
CCn1c(SCC(=O)Nc2ccccc2)nc2ncccc2c1=O,6,6
Cc1cc(C)c(S(=O)(=O)NC(Cc2ccccc2)c2nnc(SCc3ccccc3)n2-c2ccc([N+](=O)[O-])cc2)c(C)c1 (stereo not drawn),26,32

(cont.)
mol,NPYLR7 ag,NPYLR7 ag max-min
CCCCC(CC)C(=O)N1CCC(Cc2ccc(NC(C)=O)cc2)CC1 (stereo not drawn),0,10
CCOC(=O)c1c(NC(=O)Cc2cccs2)sc(C(=O)Nc2ccccc2F)c1C,-7,-9
C[C@@H]1C(=O)NC2=Nc3cccc(Cl)c3CN21,0,-18
CCC(CC)C(=O)Nc1cc(-c2cn3nc(OC)ccc3n2)ccc1Cl,-6,-9
COc1cccc(C(=O)OCc2cc(-c3ccc4c(c3)OCCO4)on2)c1OC,-2,-3
O=C(O)c1cc2ccccc2cc1OS(=O)(=O)c1cccs1,4,0
CN1C=CC=C/C1=C\N=O,-11,-14
Cn1c2c(c(=O)n(C)c1=O)C(c1cccc(Br)c1)C1C(=O)OCC1=N2 (stereo not drawn),4,8
Cc1ccc(-c2ccnc(NCCS(=O)(=O)N(C)C)n2)c(C)n1,-4,-8
COc1ccc(CN(C)C(=O)C(=O)Nc2cc(F)cc(F)c2)cc1,13,12
